Bioassay records deposited in PubChem by National Center for Advancing Translational Sciences (NCATS).
2A StopGo: FMDV 2A StopGo reporter, luciferase signal | 1.2% of 410,000 active | Potency, µM (titrated, usually from 57.9 µM), without a hit: at the highest dose signal change, negative = less light | human cells with a luciferase reporter of 2A StopGo recoding; control for the full effect not named in the record | AID 1159524; active = well fitted falling curve with a large enough effect; inconclusive = small, poorly fitted or top-dose-only effect; inactive = no such curve, though single readings can be large or run the other way; tested in HEK293T cells; further: on the % scale 0 is the no-effect control and ±100 the full control effect; nearly all actives have a fitted effect of over 45% in size; luciferase light after 4 h
Cruzain inh Det: inhibitors of Trypanosoma cruzi cruzain with detergent | purified cruzain, Z-FR-AMC fluorescence, 0.01% Triton | Potency, µM, inactives show max response, negative = inhibition, usual class: inhibitors | 0.43% of 200,000 active | AID 1478;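 further: plate controls were neutral wells for no effect and buffer without enzyme for full effect; nearly all actives have a fitted effect of over 40% in size; top concentration of the series not given in the record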
Target sequence (P25779 123-467 limits assumed): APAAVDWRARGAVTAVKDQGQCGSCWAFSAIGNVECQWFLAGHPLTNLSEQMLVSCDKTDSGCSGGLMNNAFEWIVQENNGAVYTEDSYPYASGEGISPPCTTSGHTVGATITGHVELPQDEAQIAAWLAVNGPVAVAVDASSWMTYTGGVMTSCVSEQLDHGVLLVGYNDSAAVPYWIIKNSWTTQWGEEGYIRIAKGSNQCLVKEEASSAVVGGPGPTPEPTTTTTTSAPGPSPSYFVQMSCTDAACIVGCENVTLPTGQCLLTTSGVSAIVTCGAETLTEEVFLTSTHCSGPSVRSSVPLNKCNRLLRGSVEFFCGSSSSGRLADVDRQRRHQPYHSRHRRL
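15 min RT preincubation of 1.5 nM cruzain with compound, then 2 uM Z-FR-AMC added; kinetic AMC fluorescence, 60 s delta. Triton X-100 0.01%, pH 5.5.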
SARS PLpro yeast: SARS-CoV PLP inhibition in yeast | 0.19% of 330,000 active | S. cerevisiae expressing SARS-CoV PLpro, growth rescue; control for the full effect not named in the record | Potency, µM (series often up to 32.9 µM), for inactives: at the highest dose activity, positive = growth rescue; active means well fitted rising curve with a large enough effect; inconclusive means small, poorly fitted or top-dose-only effect; inactive means no such curve, though single readings can be large or run the other way; further: 0% is about no effect; nearly all actives have a fitted effect of over 55% in size; growth read by luminescence after 48 h
Cruzain inh noDet: inhibitors of Trypanosoma cruzi cruzain without detergent | purified cruzain, Z-FR-AMC fluorescence, no detergent | Potency, µM, for the others: max response, negative = inhibition, hits mostly inhibitors | 2.3% of 200,000 active;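 further: plate controls were enzyme without inhibitor for no effect and buffer without enzyme for full effect; nearly all actives have a fitted effect of over 40% in size; top concentration of the series not given in the record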
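Detergent-free condition (0.00005% Triton X-100) in acetate buffer pH 5.5 with DTT. 1.5 nM enzyme and compound were pre-mixed 15 min, then 2 uM Z-FR-AMC substrate added; reaction progress from fluorescence change between first and third reads (60 s).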
MARV entry inh: inhibitors of Marburg virus binding or cell entry; AID 540276; Marburg virus pseudotyped entry inhibition, cell reporter; control for the full effect not named in the record; about a third of the inactives were read at about 46 µM; 1.8% of 300,000 active; Potency, µM (series often up to 37.8 µM), without a hit: at the highest dose activity change, negative = inhibition, actives largely listed as inhibitors; active = well fitted inhibition curve with a large enough effect; inconclusive = small, poorly fitted or top-dose-only effect, or effect the other way; inactive = flat fitted curve, though single readings scatter; tested in HEK293 cells; about a fifth of its hits are not listed in these tables; further: on the % scale 0 is the no-effect control and ±100 the full control effect; luciferase read-out
RE007 growth inh: less growth of the S. pombe RE007 Vpr strain; S. pombe RE007 Vpr strain, BacTiter-Glo ATP luminescence, 24 h; control for the full effect not named in the record; Potency, µM (highest dose often 92.2 µM), inactives show at the highest dose activity change, negative = less growth; 0.21% of 360,000 active; active = well fitted falling curve with a large enough effect; inconclusive = small, poorly fitted or top-dose-only effect; inactive = no such curve, though single readings can be large or run the other way;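 further: on the % scale 0 is the no-effect control and ±100 the full control effect; nearly all actives have a fitted effect of over 50% in size; the assay follows cell death caused by Vpr and the record does not say whether a fall means rescue or toxicity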
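Fission yeast RE007 carrying one integrated HIV-1 vpr copy, seeded at OD 0.01 in PMG+AL medium with 23 nL pinned compound. Grown 24 h at 30 degrees; viability read by BacTiter-Glo luminescence after 5 min.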
NS1 inh: inhibitors of influenza NS1 protein function. S. cerevisiae slowed by influenza A NS1, growth recovery by OD600. 0.4% of 270,000 active. Potency, µM (series often up to 46.1 µM), without a hit: at the top dose activity, positive = more growth; active means well fitted rising curve with a large enough effect; inconclusive means small, poorly fitted or top-dose-only effect; inactive means no such curve, though single readings can be large or run the other way; further: nearly all actives have a fitted effect of over 50% in size
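Compounds were scored for reversing the slow growth caused by influenza A NS1 in S. cerevisiae, measured by optical density at 600 nm. Assay medium contained 2% galactose at pH 6.0; NS1-free yeast of the same strain were the positive control.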
LASV entry inh: inhibitors of Lassa virus binding or cell entry | Lassa virus pseudotype entry inhibition, cell reporter; control for the full effect not named in the record | Potency, µM (series often up to 37.9 µM), for the others: at the highest dose activity change, negative = inhibition, actives largely listed as inhibitors | 1.2% of 300,000 active | AID 540256; active means well fitted inhibition curve with a large enough effect; inconclusive means small, poorly fitted or top-dose-only effect, or effect the other way; inactive means flat fitted curve, though single readings scatter; tested in HEK293 cells; further: on the % scale 0 is the no-effect control and ±100 the full control effect; nearly all actives have a fitted effect of over 50% in size; luciferase read-out
* = called active by the depositor; u = inconclusive; x = no result given; & = joins results of further samples; [ ] = another dose, or the depositor's remark. Unless noted, the call rests on the fitted dose curve; in most records, active means well fitted curve in the direction sought with a large enough effect; inconclusive means small, poorly fitted or top-dose-only effect, or another doubt; inactive means no such curve, though single readings can be large; an effect the other way counts as inactive or inconclusive. Potency means the concentration at half of the fitted maximal effect.

SMILES	2A StopGo	Cruzain inh Det	SARS PLpro yeast	Cruzain inh noDet	MARV entry inh	RE007 growth inh	NS1 inh	LASV entry inh
CC(C)(C)c1nc2ccccc2c2nnc(SCC(=O)Nc3nccs3)n12	x	-1.0%	0%	25%	u	8%	u	u
CCOC(=O)NC(=O)c1cn(CCNCCO)c(=O)[nH]c1=O	8%	x	0%	x	-1%[46.1 µM]	14%	x	13%
CC(C)NC(=O)COc1ccc(S(=O)(=O)N(C)Cc2ccccc2)cc1	u	x	-1%	x	x	12%	-45%	x
COc1ccccc1C(=O)NC(=O)COC(=O)CCOc1ccccc1C	-13%	x	-13%	x	u	1%	x	-4%
Cc1noc(C)c1S(=O)(=O)Nc1ccccc1OC(F)(F)F	-16%	x	-2%	x	x	8%	2%	x
O=C(CCc1ccccc1)Nc1ccc2c(c1)C(=O)OC2	38%[activator]	x	-1%	x	-7%	14%	-4%	u
CC(=O)N/C(=C\c1ccccc1)C(=O)OC(C)C(=O)N(C)c1ccccc1 (stereo not drawn)	-12%	x	-4%	x	11%[46.1 µM]	-3%	x	9%
CCOc1ccc(OCC)c(NC(=O)c2cc(S(=O)(=O)N3CCCC3)cn2C)c1	34%[activator]	-0.3%	x	-2%	x	x	x	-18%[46.1 µM]
C=CCN1CCN(C(=O)c2cc3c(s2)CCCC3)CC1	-5%	x	-6%	x	u	-6%	18%	28%[46.1 µM]
CN1C(=O)c2cccc(NC(=O)CCc3ccccc3)c2C1=O	-24%	-2.7%	-8%	-16%	x	3%	-59%	x
COc1ccc(Nc2oc(-c3ccccc3)nc2C#N)cc1	1%	x	14%	x	u	6%	1%	0%[46.1 µM]
Fc1ccc(CNCc2ccco2)cc1	18%	x	-1%	x	x	16%	2%	x
CCOc1cc(/C=C2\SC(=O)N(CC(=O)Nc3ccccc3F)C2=O)cc([N+](=O)[O-])c1O	u	x	1%	x	u	16%	3%	x
CCOC(=O)c1c(NC(=O)COc2ccc(C(C)(C)C)cc2)sc2c1CCCC2	-8%	-3.7%	x	-15%	x	x	x	-2%[46.1 µM]
CCc1ccc(NC(=O)c2cnc(SC)nc2C)cc1	u	x	-2%	x	x	0%	-4%	x
COCCNC(=O)c1cnc2sc(N3CCCCC3)nn2c1=O	-7%	-9.6%	x	-12%	x	x	x	24%[46.1 µM]
Nc1nonc1-c1nc2ccccc2n1Cc1ccc(Br)cc1	-29%	-1.8%	x	-4%	1%[46.1 µM]	x	x	9%[46.1 µM]
Cc1ccc(/C(C#N)=C\c2cn(C)c3ccccc23)cc1	x	-4.1%	-14%	-9%	-2%	x	-36%	x
C[C@]12CCC(=O)C=C1[C@H](O)C[C@@H]1[C@@H]2[C@@H](O)C[C@@]2(C)[C@H]1CC[C@]2(O)C(=O)CO	1%	2.1%	0%	-15%	2%	2%[18.4 µM]	13%	-3%
O=C(NCCOc1ccccc1)C1CCC(=O)N(CCc2ccccn2)C1 (stereo not drawn)	-11%	x	-4%	x	x	-1%	3%	x

Brought forward from above: 2 compounds, followed by the next part.
SMILES	2A StopGo	Cruzain inh Det	SARS PLpro yeast	Cruzain inh noDet	MARV entry inh	RE007 growth inh	NS1 inh	LASV entry inh
C[C@]12CCC(=O)C=C1[C@H](O)C[C@@H]1[C@@H]2[C@@H](O)C[C@@]2(C)[C@H]1CC[C@]2(O)C(=O)CO	1%	2.1%	0%	-15%	2%	2%[18.4 µM]	13%	-3%
O=C(NCCOc1ccccc1)C1CCC(=O)N(CCc2ccccn2)C1 (stereo not drawn)	-11%	x	-4%	x	x	-1%	3%	x
CCOc1cc(-c2noc(CCC(=O)NCCc3ccccc3)n2)ccc1OC	-3%	x	-6%	x	9%	-7%	-27%	-14%
C=C(C)CCC1(C)NC(=O)N(c2ccccc2)N1 (stereo not drawn)	1%	x	0%	x	u	67%	1%	u
COc1ccc(Nc2nc(=O)[nH]nc2C)cc1	x	-0.3%	6%	-4%	-13%	6%	-9%	3%
COc1ccc(-n2ccn(Cc3ccccc3Cl)c(=O)c2=O)cc1OC	2%	-11%	x	4%	x	x	x	-3%[46.1 µM]
CCOC(=O)Nc1ccc(C(=O)NCC2CCCO2)cc1 (stereo not drawn)	0%	2.0%	3%	-9%	15%	8%	2%	19%
CC(=O)/C(=N\Nc1ccccc1)Sc1nncn1C	-11%	-11%	4%	-17%	u	10%	22%	6%
O=C(NCCC(c1ccccc1)c1ccccc1)c1ccc(Br)o1	-8%	-11%	-39%	-7%	-30%	7%	-117%	u
CCCCN(CC)C(=O)c1cc2c(=O)n3cccc(C)c3nc2s1	20%&19%	-18%	0%	u	u	17%	-3%	4%[46.1 µM]
O=c1nc2s/c(=C\c3ccco3)c(=O)n2nc1Cc1ccccc1	-26%	-9.4%	-14%	25µM*	-3%	5%	0%	7%
CC(C)(C)C1CCC(=NNC(=S)Nc2cccnc2)CC1 (stereo not drawn)	12%	x	1%	x	2%[46.1 µM]	-3%	x	-5%[46.1 µM]
Cc1c(CCC(=O)N[C@@H](CC(C)C)C(=O)O)c(=O)oc2cc3oc4c(c3cc12)CCCC4	-18%	x	0%	x	x	1%	12%	x
COc1ccc(CNC(=O)c2nnn(Cc3ccc(OC)cc3)c2N)cc1	-22%	-0.1%	-17%	-2%	x	-12%	7%	x
COc1ccc2oc(=O)c(C(=O)N3CCN(c4cc(Cl)ccc4Cl)CC3)cc2c1	-11%	-2.9%	x	20%	-2%[46.1 µM]	x	x	-1%[46.1 µM]
COc1ccc(C)cc1NC(=O)c1nn(C)c(C(=O)Nc2cc(C)ccc2OC)c1[N+](=O)[O-]	-14%	x	-8%	x	x	6%	17%	x
O=C(c1ccccc1Cl)N(Cc1ccc(Cl)c(Cl)c1)N1C(=O)CCCC1=O	-14%	x	-1%	x	x	13%	9%	x
CC(C)(C)C(=O)Nc1cc(S(=O)(=O)Nc2ccc(Cl)cc2)ccc1O	3%	x	1%	x	u	8%	x	-30%
Cc1nn(C)c(C)c1S(=O)(=O)N1CCCC(C(=O)NCCc2ccc(Cl)cc2)C1 (stereo not drawn)	-9%	1.5%	8%	15%	-5%	-4%	-6%	x
Cc1nc2sc(C(c3cccs3)N3CCOCC3)c(O)n2n1 (stereo not drawn)	0%	-3.3%	-8%	-2%	-26%	16%	-126%	1%
CCC(=O)N1CCCc2cc(S(=O)(=O)N3CCC(C(=O)Nc4ccc(C#N)cc4)CC3)ccc21	u	-2.6%	x	18%	x	x	x	-4%[46.1 µM]
O=C(N/N=C/c1cc(Br)cc([N+](=O)[O-])c1O)c1ccc(NC(=O)c2ccc(F)cc2)cc1	-11%	x	10%	x	u	3%	1%	u
CSc1ccccc1NS(=O)(=O)c1ccccc1	0%	6.6%	-3%	-4%	-29%	3%	-1%	23%
CN(Cc1ccccc1)C(=O)CN(C1CCCCC1)S(C)(=O)=O	4%	2.6%	2%	6%	-12%	15%	-8%	-11%
Cc1cc(Cl)ccc1OCC(=O)Nc1nc(-c2cccs2)cs1	-22%	-3.9%	-13%	u	-11%	u	-59%	u
CN(C)c1ccc(CNC(=O)C2CCN(S(=O)(=O)c3cn(C)cn3)CC2)cc1	-15%	0.6%	x	-10%	x	x	x	6%[46.1 µM]
CCc1ccc(C2=CSC3=NCCN23)cc1	-9%	x	1%	x	x	3%	0%	x
COc1ccc(-c2cc(C(=O)NCCN3CCOCC3)c3ccccc3n2)cc1	32%[activator]	-2.4%	0%	0%	6%	9%	0%	-13%
O=C(CCC1CCCN(C(=O)c2ccsc2)C1)N1CCN(c2ccccn2)CC1 (stereo not drawn)	-18%	x	-5%	x	x	-8%	-1%	x
CNCC(O)COc1cccc(OC)c1 (stereo not drawn)	-3%	x	0%	x	2%	-5%	x	12%
C/C(=N\Nc1nc(C)cc(-c2ccccc2)n1)c1cccc(N)c1	-5%	x	-2%	x	x	-4%	-17%	x
Cc1ccc(NC(=S)N2CCOCC2)c(C)c1	8%	-0.2%	7%	0%	26%	7%	8%	9%
Cc1ccnc2nc(C(=O)Nc3nnc(-c4ccccc4)o3)nn12	18%	x	-2%	x	2%[46.1 µM]	-4%	x	-1%
O=C(CCS(=O)(=O)c1ccccc1)Nc1ccc(-c2nc3ccccc3s2)c(O)c1	18%	-0.2%	-18%	10µM*	8%	4%	3%	u
Cc1ccc(-n2ccn(CC(=O)c3ccc(F)cc3)c(=O)c2=O)cc1C	40%[activator]	-4.7%	x	-5%	x	x	x	-1%[46.1 µM]
O=C(Nc1ccc(S(=O)(=O)Nc2ncccn2)cc1)C(F)(F)F	0%	x	5µM*	x	10%[46.1 µM]	8%	0%	0%[46.1 µM]
O=C1CSC(=Nc2cccc(Cl)c2Cl)N1	-19%	x	-12%	x	10%[46.1 µM]	-9%	-66%	-1%[46.1 µM]
Cc1ccc2c(CNCc3cccs3)c(C(=O)O)n(Cc3ccc(F)cc3)c2c1	-4%	-8.1%	x	u	x	x	x	u
CCCCC(CC)CNC(=O)CCCc1nnc2n(CCC)c(=O)c3sccc3n12 (stereo not drawn)	u	-2.3%	x	u	u	x	x	u
Cc1ccnc(NC(=O)CCN2C(=O)c3ccccc3S2(=O)=O)n1	-5%	x	28%	x	-2%	-11%	x	12%
Cc1ccccc1-n1c(=O)c2ccccc2n2c(=O)[nH]nc12	-6%	0.3%	2%	-1%	15%	-14%	-3%	7%
COc1ccc(C2(NC(C)=O)CCN(C(=O)c3ccco3)CC2)cc1	-16%	0.4%	7%	6%	2%	12%	4%	12%
CC(=O)Nc1ccc(NS(=O)(=O)Cc2ccccc2)cc1	9%	2.1%	-1%	-4%	-2%	8%	-3%	0%
Cc1ccc(NC(=O)CCn2c(=O)c3cccn3c3ccccc32)c(C)c1	u	x	-2%	x	x	-5%	-7%	x
CC1CC2(C)Oc3ccccc3C3OCC1(CO)C(C)C32 (stereo not drawn)	-11%	2.8%	x	-9%	1%	4%	u	1%
COc1cccc(N2CC(NC(=O)C(c3ccccc3)c3ccccc3)CC2=O)c1 (stereo not drawn)	-21%	-4.9%	x	14%	x	x	x	-6%[46.1 µM]
Cc1cccc(-c2nnn3c2nc(NCc2ccccc2)c2ccccc23)c1	6%	-1.3%	x	5%	u	x	x	7%[46.1 µM]
